# Vaccinia stage – blocks a specific stage of Vaccinia orthopoxvirus infection; Vaccinia-infected cells, mCherry/Venus stage reporter fluorescence; active compounds read low; some inactives read as strong as hits; AID 1053133; activity change (mCherry), % (test concentration not listed); 89,000 compounds, 0.01% hits;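 active means mCherry past -33% and 40 or more points under the early reporter, replicates agreeing; inconclusive means past -33% without that gap or agreement; tested in A549 cells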;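 further: scaled between vehicle wells and reference inhibitor wells; 23 nL library stock went into each well; one replicate is shown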
# Vaccinia stage Venus – also measured in Vaccinia stage; calls as there; activity change (Venus), %; measured here: Venus reporter, other viral stage;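 negative = less Venus signal; first of two replicates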
# Starred values were filed as active, the others as inactive; ? = inconclusive; · = not tested or not shown. A portion of the library. The share of hits here may be higher or lower than overall.
SMILES,Vaccinia stage,Vaccinia stage Venus
CCNC(=O)C[C@@H]1CC[C@H]2[C@@H](COC[C@@H](O)CN2C(=O)Nc2ccc(C(F)(F)F)cc2)O1,17,18
CCCN(C)C[C@H]1Oc2ncc(-c3ccccc3OC)cc2C(=O)N([C@@H](C)CO)C[C@@H]1C,-11,-6
CCC(=O)Nc1ccc2c(c1)C(=O)N(C)C[C@H](OC)[C@@H](C)CN(Cc1ccccc1F)[C@@H](C)CO2,-4,0
CCCc1cn(CC[C@@H]2CC[C@@H](NC(=O)C3CCOCC3)[C@@H](CO)O2)nn1,15,13
O=C(NCC[C@H]1CC[C@@H](NC(=O)c2ccccc2F)[C@H](CO)O1)c1cnccn1,2,4
CCOC(=O)C1=CC[C@@H](c2ccccc2)[C@@H]1C(=O)c1ccc(OC)cc1,10,9
C[C@H]1CN([C@@H](C)CO)C(=O)Cc2cc(NC(=O)C3CCCCC3)ccc2O[C@@H]1CN(C)Cc1ccccc1,-19,-16
CC(=O)N1[C@@H]2c3ccc(C4=CCCC4)c(=O)n3C[C@@H]2[C@@H](CO)[C@@H]1C(=O)NCC1CC1,20,15
O=C(C[C@H]1C[C@H]2c3cc(NS(=O)(=O)c4ccccc4)ccc3O[C@H]2[C@@H](CO)O1)NC1CCCC1,-1,-10
CCN1[C@@H]2c3ccc(-c4ccc(F)cc4)c(=O)n3C[C@@H]2[C@@H](CO)[C@@H]1C(=O)N(C)C,14,16
C[C@H]1CN([C@@H](C)CO)C(=O)Cc2cc(NC(=O)C3CC3)ccc2O[C@@H]1CN(C)Cc1ccc(Oc2ccccc2)cc1,-33,-25
C[C@@H]1CN([C@H](C)CO)C(=O)c2cccc(NC(=O)CCCCCC(=O)Nc3ccccc3N)c2O[C@@H]1CN(C)C(=O)Nc1ccc(C(F)(F)F)cc1,6,12
O=C(C[C@@H]1C[C@H]2c3cc(NC(=O)Nc4ccccc4)ccc3O[C@H]2[C@H](CO)O1)NCCN1CCCCC1,13,9
COCC(=O)N1CC[C@@H]2[C@H]1c1cc(-c3cccc(C#N)c3)ccc1N[C@@H]2CO,22,19
C=CCN1C(=O)[C@]2(O[C@H](CCn3cc(CCO)nn3)[C@@H]([Si](C)(C)c3ccc(OC)cc3)[C@@H]2C)c2cc(N3C(=O)c4cccc5cccc3c45)ccc21,?,·
C[C@@H]1CN([C@H](C)CO)C(=O)Cc2cc(NC(=O)Nc3ccccc3)ccc2O[C@H]1CN(C)Cc1ccc(Cl)c(Cl)c1,-9,2
CCCC(=O)Nc1ccc2c(c1)OC[C@H](C)N(CCC(F)(F)F)C[C@@H](C)[C@H](OC)CN(C)C2=O,10,-6
COc1ccc(NC(=O)N(C)C[C@@H]2Oc3c(NC(=O)CCCCCC(=O)Nc4ccccc4N)cccc3C(=O)N([C@H](C)CO)C[C@H]2C)cc1,23,21
CCCC#Cc1ccc2c(c1)O[C@@H](CN(C)Cc1ccncc1)[C@H](C)CN([C@H](C)CO)S2(=O)=O,?,·
O=C(Nc1cccc(Cl)c1)N[C@H]1CC[C@@H](CCNC(=O)C2CCC2)O[C@@H]1CO,-9,-3
Cc1ccc(-c2ccc([C@H]3[C@@H](CO)N4C(=O)CN(C(=O)c5ccc(F)cc5)C[C@@H]34)cc2)cc1,?,·
C[C@H]1CN([C@@H](C)CO)C(=O)c2c(c3ccccc3n2C)-c2ccccc2CO[C@@H]1CN(C)S(=O)(=O)c1ccc(Cl)cc1,?,·
Cc1ccc(S(=O)(=O)N[C@@H]2C=C[C@H](CC(=O)NCc3ccccc3F)O[C@H]2CO)cc1,-11,-8
Cc1cc(C(=O)Nc2cccc3c2O[C@@H](CN(C)Cc2ccccc2)[C@@H](C)CN([C@H](C)CO)C3=O)n(C)n1,-2,-1
C/C=C/c1ccc([C@H]2[C@H](CO)N3C(=O)CN(Cc4ccc(C(=O)OC)cc4)C[C@@H]23)cc1,8,3
# Other records.
SMILES,Vaccinia stage,Vaccinia stage Venus
C[C@H]1CCCCO[C@@H](CN(C)C(=O)Nc2cccc3ccccc23)[C@@H](C)CN([C@@H](C)CO)C(=O)c2cc(NC(=O)Cc3ccccc3)ccc2O1,-5,-5
C[C@@H]1CN([C@H](C)CO)S(=O)(=O)c2ccc(C3=CCCCC3)cc2O[C@H]1CN(C)C(=O)c1ccc(F)cc1,?,·
C/C=C/c1ccc([C@H]2[C@@H](CO)N(C(=O)C3CC3)[C@H]2CN(C)C(C)=O)cc1,8,8
C[C@@H]1CCCCO[C@@H](CN(C)S(=O)(=O)c2ccc(F)cc2)[C@H](C)CN([C@@H](C)CO)C(=O)c2cc(NC(=O)CCCN(C)C)ccc2O1,4,-6
COc1ccc2c3c(n(C)c2c1)[C@H](CO)N(C(=O)CN(C)C)CC31CCN(C(=O)CN(C)C)CC1,4,-4
C[C@@H]1CN([C@@H](C)CO)C(=O)c2cc(N(C)C)ccc2O[C@H]1CN(C)CC1CCCCC1,8,5
C[C@@H]1CN([C@@H](C)CO)C(=O)c2cc(NC(=O)NC3CCCCC3)ccc2O[C@H]1CN(C)Cc1ccccc1,3,5
O=C(C[C@H]1C=C[C@@H](NC(=O)c2cccc(F)c2)[C@@H](CO)O1)NCc1ccccc1,-1,7
CN1C(=O)c2cc(NC(=O)C3CCCC3)ccc2OC[C@@H]2O[C@H](CC(=O)NCc3ccccc3F)CC[C@H]21,9,2
O=C(N[C@H]1CC[C@H](CC(=O)N2CCCCC2)O[C@H]1CO)c1ccc2c(c1)OCO2,6,-2
COCCOC(=O)N1C(=O)[C@@]2(c3cc(C#Cc4ccc(OC)cc4)ccc31)[C@H](C(=O)NC[C@H](O)c1ccccc1)[C@H]1C(=O)O[C@H](c3ccccc3)[C@H](c3ccccc3)N1[C@@H]2c1ccc(O)cc1,-6,-12
CCC(=O)N[C@@H]1C=C[C@H](CC(=O)NCc2ccccc2OC)O[C@@H]1CO,20,18
CO[C@H](CN(C)Cc1cc(F)ccc1F)[C@@H](C)CN(C(=O)Nc1ccc(F)cc1)[C@H](C)CO,-3,3
COc1ccc2c3c([nH]c2c1)[C@H](CO)N(C(=O)C1CCOCC1)CC31CCN(C)CC1,2,-5
C[C@H]1CN([C@@H](C)CO)S(=O)(=O)c2ccc(-c3ccccc3)cc2O[C@@H]1CN(C)S(=O)(=O)c1ccccc1F,?,·
CNC(=O)C[C@@H]1CC[C@@H]2[C@H](COC[C@@H](O)CN2C(=O)c2ccccn2)O1,-9,-6
C[C@H](CO)N1C[C@H](C)[C@@H](CN(C)Cc2ccc(Cl)c(Cl)c2)OCCCC[C@H](C)Oc2ccc(NC(=O)C3CCCCC3)cc2C1=O,?,·
CCCNC(=O)N1CC2(CN(CC3CC3)C2)c2c(n(C)c3cc(OC)ccc23)[C@@H]1CO,-16,-8
C[C@@H]1CN([C@@H](C)CO)C(=O)Cc2cc(N(C)C)ccc2O[C@@H]1CN(C)Cc1ccc2c(c1)OCO2,-4,-11
COc1ccc(S(=O)(=O)N(C)C[C@H]2Oc3ccc(NS(=O)(=O)c4ccc(C)cc4)cc3C(=O)N([C@H](C)CO)C[C@H]2C)cc1,3,-2
CC(C)CC#Cc1cnc2c(c1)C(=O)N([C@H](C)CO)C[C@H](C)[C@H](CN(C)C(=O)C1CCOCC1)O2,4,6
O=C(NC1CCCC1)N1CCCCN2[C@H](CO)[C@H](c3ccc(-c4cccnc4)cc3)[C@@H]2C1,-11,-7
O=C(C[C@@H]1CC[C@H](NC(=O)c2ccncc2)[C@@H](CO)O1)NCCc1ccncc1,12,8
CO[C@H]1CC[C@H]2CCOc3c(C#N)cccc3C(=O)N(C)C[C@@H](OC)[C@H](C)C(=O)N(C)C[C@@H]1O2,15,3
CN(C)C(=O)C[C@@H]1C=C[C@@H](NS(=O)(=O)c2ccccc2)[C@H](CO)O1,9,2
# Following part:
SMILES,Vaccinia stage,Vaccinia stage Venus
C[C@H]1CN([C@@H](C)CO)C(=O)Cc2cc(NS(=O)(=O)c3ccc(F)cc3)ccc2O[C@@H]1CN(C)Cc1ccc2c(c1)OCO2,-9,-2
COc1ccc2c3c([nH]c2c1)[C@@H](CO)N(Cc1nccs1)CC31CCN(C(=O)C2CC2)CC1,3,10
CNC[C@@H]1OCCCC[C@@H](C)Oc2ccc(NC(=O)Nc3ccc(C(F)(F)F)cc3)cc2C(=O)N([C@@H](C)CO)C[C@@H]1C,-8,-2
COCC(=O)N(C)C[C@@H]1Oc2ncc(-c3ccccc3OC)cc2C(=O)N([C@H](C)CO)C[C@H]1C,9,2
C[C@@H]1CCCCO[C@@H](CN(C)S(=O)(=O)c2ccc(F)cc2)[C@H](C)CN([C@@H](C)CO)C(=O)c2cc(NC(=O)CCC(F)(F)F)ccc2O1,-29,-22
C/C=C/c1cnc2c(c1)C(=O)N([C@@H](C)CO)C[C@H](C)[C@H](CN(C)C(=O)Cc1ccccc1)O2,37,10
C[C@@H]1CCCCO[C@@H](CN(C)Cc2ccc(Cl)c(Cl)c2)[C@@H](C)CN([C@H](C)CO)C(=O)c2cc(NC(=O)Nc3ccc4c(c3)OCO4)ccc2O1,-14,4
CCCC#Cc1ccc([C@@H]2[C@@H](CO)N3C(=O)CN(C(=O)NCCC)C[C@H]23)cc1,-13,-10
CO[C@H]1CC[C@@H]2CCOc3ccc(C#N)cc3C(=O)N(C)C[C@H](OC)[C@H](C)C(=O)N(C)C[C@@H]1O2,4,6
C/C=C/c1ccc([C@@H]2[C@H](CO)N[C@H]2CN(CC)C(=O)c2ccccn2)cc1,-9,-6
O=C(C[C@H]1CC[C@@H](NS(=O)(=O)c2ccccc2)[C@@H](CO)O1)N1CCN(c2ccccc2)CC1,4,-2
COCC#Cc1ccc2c(c1)O[C@H](CN(C)C(=O)Nc1ccccc1F)[C@H](C)CN([C@@H](C)CO)S2(=O)=O,1,4
CC(C)NC(=O)Nc1cccc2c1O[C@H](CN(C)S(=O)(=O)c1ccc(Cl)cc1)[C@@H](C)CN([C@H](C)CO)C2=O,7,0
CN1C(=O)c2cc(NS(=O)(=O)c3ccccc3Cl)ccc2OC[C@H]2O[C@@H](CC(=O)O)CC[C@H]21,6,0
CC(C)CC#Cc1ccc([C@H]2[C@@H](CO)N3C(=O)CN(C(=O)Cc4cccnc4)C[C@@H]23)cc1,0,-11
C[C@H](CO)N1C[C@H](C)[C@H](CN(C)S(C)(=O)=O)Oc2cc(-c3ccccc3F)ccc2S1(=O)=O,-22,-12
C[C@@H]1CCCCO[C@@H](CN(C)Cc2ccccc2)[C@@H](C)CN([C@@H](C)CO)C(=O)c2cc(NC(=O)Nc3cccc4ccccc34)ccc2O1,?,·
COc1ccccc1CNC(=O)C[C@@H]1CC[C@H]2[C@@H](COc3ccc(NC(=O)Nc4ccc(F)c(F)c4)cc3C(=O)N2C)O1,-7,14
COc1ccc2c3c([nH]c2c1)[C@@H](CO)N(C(=O)CN(C)C)CC31CCN(Cc2ccccc2Cl)CC1,?,·
COc1cccc(NC(=O)N[C@@H]2CC[C@H](CC(=O)Nc3ccc(-c4ccccc4)cc3)O[C@@H]2CO)c1,?,·
CN(C)C(=O)c1cccc(-c2ccc3c(c2)[C@H]2[C@H](CCN2Cc2nccs2)[C@H](CO)N3)c1,-10,9
O=C(NCC[C@@H]1CC[C@@H](NC(=O)c2cnccn2)[C@@H](CO)O1)c1ccc2c(c1)OCO2,2,7
C[C@H]1CN([C@@H](C)CO)C(=O)c2cc(Br)cnc2O[C@H]1CN(C)C(=O)Cc1ccccn1,13,7
C[C@H]1CN([C@@H](C)CO)C(=O)c2cc(C#CC3(O)CCCC3)cnc2O[C@@H]1CN(C)C(=O)C1CCCCC1,3,2
O=C(Cc1cccnc1)N1CCCCN2[C@H](CO)[C@H](c3ccc(C#CC4(O)CCCC4)cc3)[C@H]2C1,12,7
C[C@@H]1CN([C@H](C)CO)S(=O)(=O)c2ccc(C3=CCCC3)cc2O[C@@H]1CN(C)Cc1cccnc1,-4,-17
C[C@H](CO)N1C[C@H](C)[C@H](CN(C)C)Oc2ncc(-c3cccc(C(F)(F)F)c3)cc2C1=O,-10,-13

# Screening data from PubChem BioAssay.
